TAAR1 antagonist – human TAAR1 antagonism; Q96RJ0; CHO RD-HGA16 TAAR1, Fluo-8 calcium fluorescence, antagonist; inhibition, % at 3 µM; 1.5% of 360,000 active; AID 624466;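 active = inhibition above a per-plate cutoff, the mean inhibition of test compounds on that plate plus 3 SD, cut at about 49% in these data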;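 note: 0% = DMSO plus EC80 beta-PEA response and 100% = DMSO alone without agonist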
Target sequence (Q96RJ0 whole entry, looked up): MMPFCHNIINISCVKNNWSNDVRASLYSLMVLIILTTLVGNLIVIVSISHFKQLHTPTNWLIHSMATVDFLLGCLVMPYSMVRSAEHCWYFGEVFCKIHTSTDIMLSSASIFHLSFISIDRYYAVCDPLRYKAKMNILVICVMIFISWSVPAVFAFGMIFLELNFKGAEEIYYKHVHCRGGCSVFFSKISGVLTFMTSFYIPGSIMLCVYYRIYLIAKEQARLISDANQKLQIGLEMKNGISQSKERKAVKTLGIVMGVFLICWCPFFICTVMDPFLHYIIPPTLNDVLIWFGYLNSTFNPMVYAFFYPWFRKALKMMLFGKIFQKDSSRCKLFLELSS
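System: CHO RD-HGA16 cells bearing hTAAR1. Reagent: EC80 β-phenethylamine stimulus. Schedule: seeding 17-24 h prior, 75-min 37 °C, 30-min RT dye loading. Signal: Fluo-8 intracellular calcium dye fluorescence, real-time kinetic reads. Read-out: % inhibition from peak post-agonist over basal fluorescence ratio. Benchmarks: vehicle wells and EC80 agonist wells. Replicates: n of 1.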
CHO parental Ca – counter-screen for OX1R antagonists: effect in parental CHO cells. AID 463079. parental CHO-K1, ATP-induced calcium, Fluo-8 fluorescence. 0.63% of 330,000 active. inhibition, % at 5.6 µM;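 active = inhibition above that plate's mean sample inhibition plus 3 SD, cut at about 26% in these data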;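 note: 0% = ATP-challenged DMSO wells and 100% = DMSO wells without ATP; some compounds past the cut are filed as inactive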
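Assay system: untransfected parental CHO cell line. Also added: ATP agonist challenge. Dosing: one dose, 5.6 µM nominal. Measured by: Fluo-8 fluorescence. Read-out: % inhibition. Benchmarks: ATP wells versus no-ATP DMSO wells. Repeats: no replicates.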
Starred values were filed as active, the others as inactive; / = not tested or not shown; & = joins results of further samples. Only part of the results is shown, and most or all hits are left out here.

SMILES	TAAR1 antagonist	CHO parental Ca
CN(C)CC/C=C1/c2ccccc2COc2ccccc21	/	-16.5
CC(=O)CC(c1ccc([N+](=O)[O-])cc1)c1c(O)c2ccccc2oc1=O (configuration not stated)	4.0	-5.2
Cc1cc(C(=O)NNCc2ccccc2)no1	0.3	-6.9
COc1cc(NS(C)(=O)=O)ccc1Nc1c2ccccc2nc2ccccc12	-14.0	-16.7
C[N+]1(C)CCC(OC(=O)C(O)(c2ccccc2)C2CCCC2)C1 (configuration not stated)	-11.6	-11.7
Nc1ccc(S(=O)(=O)Nc2ccccn2)cc1	-1.7	5.2
CC(C)NCC(O)c1ccc(NS(C)(=O)=O)cc1 (configuration not stated)	-14.1	-11.1
NS(=O)(=O)c1cc(C(=O)O)c(NCc2ccco2)cc1Cl	-11.3	8.7
CN(C)CC[C@@H](c1ccc(Br)cc1)c1ccccn1	3.0	-9.9
CCN(CC)CC(=O)Nc1c(C)cccc1C	-10.8&-8.9&-3.2	-9.2&-1.4&-5.8
NC(=O)c1ncn([C@@H]2O[C@H](CO)[C@@H](O)[C@H]2O)n1	-2.9	-7.8
Nc1nc(N)nc(-c2cc(Cl)ccc2Cl)n1	-16.2	-1.8
CC(=O)C1CCC2C3CCC4CC(=O)CCC4(C)C3C=CC12C (configuration not stated)	6.7	/
CCCC(=O)Nc1ncnc2c1ncn2[C@@H]1O[C@@H]2COP(=O)(O)O[C@H]2[C@H]1OC(=O)CCC	3.9&-9.2	-3.6
CC(=O)O[C@H]1C(=O)[C@]2(C)[C@H]([C@H](OC(=O)c3ccccc3)[C@]3(O)C[C@H](OC(=O)[C@H](O)[C@@H](NC(=O)c4ccccc4)c4ccccc4)C(C)=C1C3(C)C)[C@]1(OC(C)=O)CO[C@@H]1C[C@@H]2O	-8.2	-18.8
CC(C)(C)NC[C@H](O)COc1nsnc1N1CCOCC1	-26.2&-6.0&-28.5	0.6&-3.8
CCC1(c2ccccc2)NC(=O)N(C)C1=O (configuration not stated)	1.9	0.8
Nc1ncn([C@@H]2O[C@H](CO)[C@@H](O)[C@H]2O)c(=O)n1	-10.7	5.3
C[C@]12C=CC(=O)C=C1CC[C@@H]1[C@@H]2C(=O)C[C@@]2(C)[C@H]1CC[C@]2(O)C(=O)CO	-6.3&4.8	-5.0&8.0
OCCOCCN1CCN(C2=Nc3ccccc3Sc3ccccc32)CC1	1.6&-22.9	-3.3&-2.1
CC(C)n1c(/C=C/[C@H](O)C[C@H](O)CC(=O)O)c(-c2ccc(F)cc2)c2ccccc21	/	-19.1
CN(C)N=Nc1nc[nH]c1C(N)=O	-3.7	-10.3
CC(C)NC[C@H](O)COc1cccc2ccccc12	-17.7	-6.0
CN(C)CC/C=C1\c2ccccc2Sc2ccc(Cl)cc21	35.8	0.9
CN1[C@@H]2CC[C@H]1CC(OC(=O)c1c[nH]c3ccccc13)C2 (some centres not stated)	-13.3	1.8

Some of these compounds in order of formula weight, high to low:
SMILES	TAAR1 antagonist	CHO parental Ca
OCCOCCN1CCN(C2=Nc3ccccc3Sc3ccccc32)CC1	1.6&-22.9	-3.3&-2.1
NS(=O)(=O)c1cc(C(=O)O)c(NCc2ccco2)cc1Cl	-11.3	8.7
CC(C)NCC(O)c1ccc(NS(C)(=O)=O)cc1 (configuration not stated)	-14.1	-11.1
Cc1cc(C(=O)NNCc2ccccc2)no1	0.3	-6.9

Returning to the listing, starting 2 compounds before the break.
SMILES	TAAR1 antagonist	CHO parental Ca
CN(C)CC/C=C1\c2ccccc2Sc2ccc(Cl)cc21	35.8	0.9
CN1[C@@H]2CC[C@H]1CC(OC(=O)c1c[nH]c3ccccc13)C2 (some centres not stated)	-13.3	1.8
C[C@@H]1O[C@@H]1P(=O)(O)O	-3.0	-0.7
CC1=NS(=O)(=O)c2cc(Cl)ccc2N1	17.2	0.6
COc1ccc(C(=O)NCc2cccnc2)cc1C(=O)NCc1cccnc1	-16.2	-1.6
O=C(CCCCCCC(=O)Nc1ccccc1)NO	-1.0	-0.3
Nc1ncnc2c1ncn2C1OC(CO)C(O)C1O (configuration not stated)	-7.6	-6.0
CN(C)CCC(c1ccc(Br)cc1)c1ccccn1 (configuration not stated)	-32.9&13.1&-1.6	-7.1&-14.6
Cc1ccccc1N1C(=O)c2cc(S(N)(=O)=O)c(Cl)cc2NC1C (configuration not stated)	0.1	-9.9
CCC(=O)OCC(=O)C1(OC(=O)CC)[C@H](C)C[C@H]2[C@H]3[C@H]([C@@H](O)C[C@@]21C)[C@@]1(C)C=CC(=O)C=C1C[C@H]3Cl (some centres not stated)	-10.9	-17.6
Nc1ccn([C@@H]2O[C@H](CO)[C@@H](O)[C@H]2O)c(=O)n1	-27.8	/
CN/C(=C\[N+](=O)[O-])NCCSCc1ccc(CN(C)C)o1	1.4	-4.0
OCC(O)[C@@H](O[C@H]1O[C@H](CO)[C@@H](O)[C@H](O)[C@H]1O)[C@H](O)[C@@H](O)CO (some centres not stated)	-2.9	-4.5
COc1cc(C(=O)OCCCN2CCCN(CCCOC(=O)c3cc(OC)c(OC)c(OC)c3)CC2)cc(OC)c1OC	-25.1	-9.7
COc1ccc2cc(CCC(C)=O)ccc2c1	7.0	-2.2
COc1ccc2[nH]cc(CCNC(C)=O)c2c1	-26.5	6.8
C=C(CC)C(=O)c1ccc(OCC(=O)O)c(Cl)c1Cl	-14.9	-15.9
OC(Cn1cncn1)(Cn1cncn1)c1ccc(F)cc1F	-12.1	-5.5
CCN1CCC[C@H]1CNC(=O)c1c(OC)ccc(Br)c1OC	-3.5	-14.8
CCCCc1nc(Cl)c(CO)n1Cc1ccc(-c2ccccc2-c2nnn[nH]2)cc1	-9.9	-3.5
CC(C)Oc1ccc2c(=O)c(-c3ccccc3)coc2c1	-3.7	-13.6
CC12C=CC(=O)C=C1CCC1C2C(=O)C[C@@]2(C)C1CCC2(O)C(=O)CO (some centres not stated)	0.7	-4.4
Cc1ccc(/C(=C\CN2CCCC2)c2ccccn2)cc1	-9.9	-20.4
Cc1noc(NS(=O)(=O)c2ccc(N)cc2)c1C	-33.8	-4.7

Another view of part of the listing above:
Second line of a record: TAAR1 antagonist | CHO parental Ca
CCCCc1nc(Cl)c(CO)n1Cc1ccc(-c2ccccc2-c2nnn[nH]2)cc1
  -9.9 | -3.5
CC(C)Oc1ccc2c(=O)c(-c3ccccc3)coc2c1
  -3.7 | -13.6
CC12C=CC(=O)C=C1CCC1C2C(=O)C[C@@]2(C)C1CCC2(O)C(=O)CO (some centres not stated)
  0.7 | -4.4
Cc1ccc(/C(=C\CN2CCCC2)c2ccccn2)cc1
  -9.9 | -20.4
Cc1noc(NS(=O)(=O)c2ccc(N)cc2)c1C
  -33.8 | -4.7

An excerpt of these results, comma-delimited:
Structure,TAAR1 antagonist,CHO parental Ca
COc1ccc2[nH]cc(CCNC(C)=O)c2c1,-26.5,6.8
CC(C)Oc1ccc2c(=O)c(-c3ccccc3)coc2c1,-3.7,-13.6
OC(Cn1cncn1)(Cn1cncn1)c1ccc(F)cc1F,-12.1,-5.5
COc1ccc(C(=O)NCc2cccnc2)cc1C(=O)NCc1cccnc1,-16.2,-1.6
Cc1ccc(/C(=C\CN2CCCC2)c2ccccn2)cc1,-9.9,-20.4
COc1cc(C(=O)OCCCN2CCCN(CCCOC(=O)c3cc(OC)c(OC)c(OC)c3)CC2)cc(OC)c1OC,-25.1,-9.7

Screening results from PubChem.
